Compound activity from PubChem.
Hedgehog = Hh protein inhibition, biochemical readout – plate reader, single concentration, primary screen (AID 588832); Biochemical plate reader assay, Hedgehog inhibition; hits give high values; inhibition, % at 30.3 µM; 8,000 tested, under 10 active; in the data active = inhibition from about 57%;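 note: 0% = neutral control wells and 100% = positive control wells; cholesterol-driven self-cleavage of fly hedgehog protein by fluorescence polarization; read one hour after cholesterol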
* hit, by the source's call. These rows are one share of the data. The share of hits here may be higher or lower than overall.

Compound	Hedgehog
Cc1ccc(NC(=O)CCNS(=O)(=O)c2ccc3c(c2)CCC(=O)N3)c(Br)c1	9.1
O=C(O)CCC(=O)N1CCc2cc(S(=O)(=O)N3CC=C(c4ccccc4)CC3)ccc21	4.6
CC(=O)c1cccc(NC(=O)Cn2cc3c(n2)CCCC3)c1	16.7
O=C(c1cccc(NC2=NC3CS(=O)(=O)CC3S2)c1)N1CCN(c2cccc(Cl)c2)CC1 (centres undefined)	2.8
Cc1ccc(C2CC(c3cccc(Br)c3)n3nc(N)nc3N2)cc1 (centres undefined)	4.5
Nc1nnc(N2CCc3ccccc32)s1	16.7
COc1ccccc1N(C)C(=O)c1cc(S(=O)(=O)N2CCc3ccccc32)cn1C	3.3
Cc1cc(C)cc(NC(=O)C(=O)NCCc2c[nH]c3ccccc23)c1	7.7
O=c1cc(N2CCCCC2)[nH]c(=O)n1C1CCCCC1	1.7
O=C(C1CC1)N1CCN=C1SCc1cccc(F)c1	1.8
Oc1c(C(c2ccccc2)N2CCN(Cc3ccccc3)CC2)sc2ncnn12 (centres undefined)	0.0
CCOc1ccc(C(=O)Nc2nnc(S(=O)(=O)Nc3ccccc3C)s2)cc1	0.0
COc1cccc(-c2nc(CS(=O)(=O)CC(=O)N3CCN(C)CC3)c(C)o2)c1	5.5
COC(=O)c1ccccc1NC(=O)C1=CC(c2cccs2)=NS(=O)(=O)N1C	7.0
O=C1Cc2cc(S(=O)(=O)N3CCCCC3)ccc2N1	5.8
COc1ccc(Cl)cc1N1C(=O)C2CCCN2C1c1ccccc1F (centres undefined)	17.4
CCSc1nnc(NC(=O)CSc2nc(CC)nc3c2c(=O)n(C)c(=O)n3C)s1	4.4
CCOC(=O)CN1CC23C=CC(O2)C(C(=O)NCc2ccc(C)cc2)C3C1=O (centres undefined)	9.6
COc1cc(C(=O)N2CCN(c3cc(Cl)ccc3Cl)CC2)cc(OC)c1OC	0.0
Cn1c(Cn2c(=O)sc3ccccc32)nnc1SCC(=O)NCc1ccco1	16.7
COc1ccc(-c2[nH]c3ccccc3c2SCCNC(=O)c2cc3ccccc3oc2=O)cc1	8.7
O=C(NCc1cccs1)C(Cc1ccccc1)n1cccc1 (centres undefined)	9.6
CC(O)CSc1nc2c(c(=O)n(C)c(=O)n2C)n1CCCc1ccccc1 (centres undefined)	0.0
CC(C)[C@@H](C(=O)N[C@@H](Cc1ccccc1)C(=O)O)N1C(=O)N2CCc3c([nH]c4ccccc34)[C@@]2(C)C1=O	0.0
COCOc1cc(O)c2c(=O)c(OCOC)c(-c3ccc(OCOC)c(OCOC)c3)oc2c1	1.7

Compound	Hedgehog
COc1ccc(C2=NN(C(=O)CSc3cn(C)c4ccccc34)C(c3ccc(OC)cc3)C2)cc1 (centres undefined)	8.7
O=C1c2ccccc2C(Nc2ccc3c(c2)OCCO3)N1c1ccc(Cl)cn1 (centres undefined)	20.0
COc1ccccc1S(=O)(=O)Cc1ccc(C(=O)NCCN2CCCCCC2)o1	20.0
COc1cc(OC)c(C2CC(=O)N3CN(C)CSC3=C2C#N)cc1OC (centres undefined)	5.0
COc1ccc(CCNC(=O)CCC(=O)N2CCOc3ccccc32)cc1OC	5.2
O=C(COc1ccc2c(c1)oc(=O)c1ccccc12)N[C@@H](Cc1ccccc1)C(=O)O	0.0
Cc1cccc(N(C)C(=O)c2cc(S(=O)(=O)N3CCCC3)cn2C)c1	7.0
Cn1cccc1Cc1nnc(SCC(=O)N2CCOCC2)n1CCc1ccccc1	12.9
CC(=O)c1c(O)cc(O)cc1O	4.9
Cn1c(Cn2c(=O)sc3ccccc32)nnc1SCC(=O)NCc1ccc2c(c1)OCO2	8.3
Cc1ccc(CNC(=O)[C@H](C)NC(=O)C2CCN(C(=O)[C@@H](N)CC(C)C)CC2)cc1	6.8
Cc1c(Cc2ccccc2)c(=O)oc2c(C)c(OCC(=O)NCC3CCC(C(=O)O)CC3)ccc12 (centres undefined)	5.2
CCN1CCN(C(=O)CSCc2nc(-c3ccc(OC)c(OC)c3)oc2C)CC1	25.0
CCN1CCN(c2nc(C)nc3c2sc(=S)n3C)CC1	20.0
COc1ccc(NC(=O)CSc2nnc(Cc3cccn3C)n2-c2ccc(OC)cc2)cc1	20.8
CC1(C)CC[C@]2(C(=O)O)CC[C@]3(C)C(=CCC4[C@]56CC[C@@](O)(OC5)C(C)(C)C6CC[C@]43C)C2C1 (some centres undefined)	6.9
O=C(c1sc2ccccc2c1Cl)N(Cc1cccs1)C1CCS(=O)(=O)C1 (centres undefined)	15.0
C[C@H](O)CC1=C[C@H](O)[C@@H](C)OC1=O	0.0
Cc1ccc(C(=O)Nc2nnc(S(=O)(=O)N3CCOCC3)s2)cc1	1.8
Cc1cc2cc(CNC(=O)Nc3ccc(Cl)c(Cl)c3)ccc2n1C	2.6
CCCOCCOC(=O)c1[nH]c2c(c1C)C(=O)CC(c1cc(OC)ccc1OC)C2 (centres undefined)	14.9
Clc1cccc(CSc2nc3ccncc3[nH]2)c1	5.4
COc1cc(C)c2c(c1C=O)Oc1c(c(C)c(O)c3c1C(O)OC3=O)OC2=O (centres undefined)	1.7
COc1cccc(-c2nc(CS(=O)(=O)CC(=O)Nc3c(C)cccc3C)c(C)o2)c1	9.5
CC1CCCC(C)N1CCCNC(=O)CN1C(=O)c2cccnc2Oc2ccc(Cl)cc21 (centres undefined)	8.7

Compound	Hedgehog
O=C(NCc1cccnc1)C(=O)NCC1OCCN1S(=O)(=O)c1ccc(Cl)cc1 (centres undefined)	1.7
COc1ccc(NC(=O)c2cc(S(=O)(=O)N3CCOCC3)cn2C)c(OC)c1	7.0
COc1ccc(NC(=O)CSc2nc3c(c(=O)n2-c2ccccc2OC)SCC3)cc1	-1.9
Cc1ccc(N2C(=O)c3ccccc3C2Nc2ccc(S(=O)(=O)N3CCOCC3)cc2)nc1 (centres undefined)	13.3
COc1ccc(C2=NS(=O)(=O)N(C)C(C(=O)NC3CCCCC3)=C2)cc1	1.9
COc1ccc(/C=C2\Oc3cc(OCC(=O)N4CC(O)C[C@H]4C(=O)O)ccc3C2=O)c(OC)c1OC (some centres undefined)	-1.8
COc1cc(C(=O)NCc2cn3cccc(C)c3n2)cc(OC)c1OC	7.0
CSc1cccc(NC(=O)c2cc(S(=O)(=O)N3CCCC3)cn2C)c1	5.2
COc1ccc(NC(=O)CCS(=O)(=O)c2cc3c(cc2C)NC(=O)CO3)cc1	1.8
Cc1oc(-c2ccccc2)nc1CS(=O)CC(=O)NC1CCCC1 (centres undefined)	5.3
Cc1ccc(C2CC(c3ccccc3)n3ncnc3N2)cc1 (centres undefined)	-4.2
COc1ccc(CNC(=O)c2cccc(NC3=NC4CS(=O)(=O)CC4S3)c2)cc1 (centres undefined)	3.6
COc1ccc(N(C(=O)c2cccnc2)S(=O)(=O)c2ccc(OC)c(OC)c2)cc1	19.2
COc1cc(NC(=O)COc2cc(O)c3c(c2)OC(C)(C)CC3=O)cc(OC)c1OC	1.7
C=C[C@H]1C(O[C@@H]2O[C@H](CO)[C@@H](O)[C@H](O)[C@H]2O)OC=C2C(=O)N3CCc4cc(OC)c(O)cc4[C@H]3C[C@H]21 (some centres undefined)	8.2
CN(C)c1ccc(CNC(=O)c2cc(S(=O)(=O)N3CCOCC3)cn2C)cc1	3.5
CC(CCl)OC(C)CCl (centres undefined)	0.0
COc1ccc(-c2nnc(SCC(=O)NC3CCCCC3)o2)cc1OC	6.3
O=C(C(Cc1ccccc1)n1cccc1)N1CCN(c2ccccc2)CC1 (centres undefined)	8.7
Cc1ccc(NC(=O)c2cc(S(=O)(=O)N3CCc4ccccc43)cn2C)cc1C	10.2
CCOC(=O)CN1CC23C=CC(O2)C(C(=O)Nc2ccc4c(c2)OCO4)C3C1=O (centres undefined)	3.4
Cc1cc(=O)oc2cc(OC(=O)c3ccccc3)ccc12	5.4
Cc1c(C(=O)NCc2ccco2)sc2nc(-c3ccccc3)cn12	14.5
COc1ccc(NS(=O)(=O)c2ccc3c(c2)oc(=O)n3C)c(OC)c1	15.0
CCOC(=O)c1c(-c2ccccc2)c(C(C)=O)c(=O)n(C)c1C	20.0

Among those listed so far, these have a thiophene ring, fused or not.
Compound	Hedgehog
COC(=O)c1ccccc1NC(=O)C1=CC(c2cccs2)=NS(=O)(=O)N1C	7.0
O=C(NCc1cccs1)C(Cc1ccccc1)n1cccc1 (centres undefined)	9.6
O=C(c1sc2ccccc2c1Cl)N(Cc1cccs1)C1CCS(=O)(=O)C1 (centres undefined)	15.0

Next compounds follow.
Compound	Hedgehog
COc1c2ccoc2cc2oc(=O)ccc12	3.4
CCOc1ccc(CCNC(=O)CCc2nnc3ccc(N4CCOCC4)nn23)cc1OCC	-7.8
COc1ccc2c(C)c(CCC(=O)NC3CC3)c(=O)oc2c1	9.0
COc1ccc(S(=O)(=O)N2CCOC2CNC(=O)C(=O)NCCc2ccc(S(N)(=O)=O)cc2)cc1 (centres undefined)	5.1
COc1cccc(C2N(c3ccc(Cl)cc3)C(=O)C3CCCN32)c1 (centres undefined)	20.0
COc1ccc(N(CC(=O)N2CC=C(c3ccccc3)CC2)S(=O)(=O)c2c(C)noc2C)cc1	3.5
O=C(Cn1cnc2c(nnn2Cc2ccc(Cl)cc2)c1=O)N1CCN(c2ccccc2)CC1	7.7
OCCO	-1.8
O=c1oc2ccccc2n1Cc1ccccc1Cl	4.6
COc1ccc(CCNc2oc(COc3ccc(Br)cc3)nc2C#N)cc1OC	15.0
O=S(=O)(NCC(c1cccnc1)N1CCN(c2ccc(F)cc2)CC1)c1ccc(F)cc1 (centres undefined)	5.5
O=c1cc(N2CCN(c3ccccc3)CC2)[nH]c(=O)n1Cc1ccc(F)cc1	5.1
Cc1c(C)c2ccc(OC(C)C(=O)N3CC[C@@]4(O)CCCC[C@H]4C3)cc2oc1=O (some centres undefined)	8.6
c1ccc(-c2nnc(CN3CCN(C(c4ccccc4)c4ccccc4)CC3)o2)cc1	7.0
CCOC(=O)c1ccc(NC2c3ccccc3C(=O)N2c2ccccn2)cc1 (centres undefined)	5.2
COc1ccc2c(C)cc(SCC(=O)Nc3nsc(-c4ccc(C)cc4)n3)nc2c1	0.0
COc1cccc(CNC(=O)C2CCN(C(=O)N3CC(C)Oc4ccccc43)CC2)c1 (centres undefined)	6.8
CCN1CCN(C(c2cccs2)C(C)NC(=O)C(C)C)CC1 (centres undefined)	7.0
CN(CCCNC(=O)Cn1cc2c(n1)CCCC2)C1CCCCC1	11.1
COc1ccc(CCNC(=O)CSc2cn(Cc3ccccc3)c3ccccc23)cc1OC	5.2
Cc1cc(C(=O)Nc2cc(C)on2)on1	5.2
CCOC(=O)CNC(=O)Cn1cnc2c(nnn2-c2ccccc2)c1=O	3.4
O=C(NCCn1cc(SCC(=O)N2CCOCC2)c2ccccc21)c1ccccc1	14.1
COc1ccc(-n2c(Cc3cccn3C)nnc2SCC(=O)Nc2cc(C)cc(C)c2)cc1	17.4
CC(Sc1nncn1C)C(=O)Nc1nnc(C(C)C)s1 (centres undefined)	1.9

Compound	Hedgehog
O=C(Cn1nc(Cc2cccnc2)c2ccccc2c1=O)NCC1CCCO1 (centres undefined)	8.5
C/C=C(\C)C(=O)OC1[C@H](OC(C)=O)C2(CO)C(CC1(C)C)C1=CCC3C4(C)CCC(O[C@@H]5O[C@H](C(=O)O)[C@@H](O[C@@H]6O[C@H](CO)[C@@H](O)[C@H](O)[C@H]6O)[C@H](O)[C@H]5O[C@H]5O[C@H](CO)[C@@H](O)[C@H](O)[C@H]5O)[C@](C)(CO)C4CCC3(C)[C@]1(C)C[C@H]2O (some centres undefined)	-0.1
Cn1c(C(=O)NCC2CCCO2)cc2c(=O)n(C)c3ccccc3c21 (centres undefined)	8.3
Cn1cc(SCC(=O)N2CCN(c3ccccc3)CC2)c2ccccc21	0.9
CCc1ccc(C2CC(c3ccccc3C)n3nc(N)nc3N2)cc1 (centres undefined)	23.4
O=C(NCCCN1CCc2ccccc2C1)C1CCN(c2nnc(-n3cccc3)s2)CC1	8.7
CCSc1nnc(N2C(=O)CC(c3ccsc3)C3=C2CC(C)(C)CC3=O)s1 (centres undefined)	20.0
Cc1cc(S(=O)(=O)N2CCN(Cc3ccccc3)CC2)c(C)s1	15.0
COc1cc(C(=O)NCCCc2nc3ccccc3n2Cc2cc(C)ccc2C)cc(OC)c1OC	0.0
CCOc1ccc(-c2noc(CCC(=O)O)n2)cc1	14.9
CCOC(=O)C1CCCN(CCCc2ccccc2)C1 (centres undefined)	5.2
COC(=O)c1ccccc1NS(=O)(=O)c1cn(C)c(=O)n(C)c1=O	3.6
CC1CCc2nn(CC(=O)NC3CCCC3)cc2C1 (centres undefined)	20.0
COc1ccc(CCC(=O)NCc2cn3ccc(C)cc3n2)cc1	9.1
Cn1cc(S(=O)(=O)N2CCC3(CC2)OCCO3)c(=O)n(C)c1=O	3.4
CCC1CCCCN1C(=O)CSc1nnc(-c2ccc(Cl)cc2)o1 (centres undefined)	16.7
Cc1ccc(CCNS(=O)(=O)c2ccc3c(c2)C(C)(C)C(=O)N3C)cc1	3.6
Cc1cc2ccccc2n1CCNC(=O)COc1ccccc1	8.0
CC1CCN(C(=O)CSc2nnc(Cn3c(=O)sc4ccccc43)n2C)CC1	8.3
COC(=O)CCc1ccc(O)cc1	1.8
CC(=O)c1cccc(NC(=O)c2cc(C(C)C)on2)c1	6.8
CCOC(=O)N1CCC(N2C(=O)c3ccccc3C2Nc2cc(Cl)c(OC)cc2OC)CC1 (centres undefined)	1.8

A run of entries of the results above:
Compound	Hedgehog
O=C(Cn1nc(Cc2cccnc2)c2ccccc2c1=O)NCC1CCCO1 (centres undefined)	8.5
C/C=C(\C)C(=O)OC1[C@H](OC(C)=O)C2(CO)C(CC1(C)C)C1=CCC3C4(C)CCC(O[C@@H]5O[C@H](C(=O)O)[C@@H](O[C@@H]6O[C@H](CO)[C@@H](O)[C@H](O)[C@H]6O)[C@H](O)[C@H]5O[C@H]5O[C@H](CO)[C@@H](O)[C@H](O)[C@H]5O)[C@](C)(CO)C4CCC3(C)[C@]1(C)C[C@H]2O (some centres undefined)	-0.1
